Vaccinia Venus: vaccinia inhibition (Venus reporter) | Vaccinia virus Venus reporter expression, fluorescence | Potency, µM (doses to about 36.5 µM), for inactives: at the highest dose activity change, negative = inhibition, hits mostly inhibitors | 330,000 tested, 0.46% active | AID 720580; active means well fitted inhibition curve with a large enough effect; inconclusive means small, poorly fitted or top-dose-only effect; inactive means no such curve, though single readings can be large or run the other way; tested in A549 cells; note: nearly all actives have a fitted effect of over 30% in size; inactives centre near -10
VACV mCherry inh: inhibitors of vaccinia virus infection (mCherry reporter signal); Vaccinia virus mCherry reporter infection, fluorescence; about a quarter of the inactives have no number; Potency, µM (doses to about 36.5 µM), for inactives: at the highest dose activity change, negative = inhibition, hits mostly inhibitors; 310,000 tested, 0.63% active; AID 720579; active = well fitted inhibition curve with a large enough effect; inconclusive = small, poorly fitted or top-dose-only effect; inactive = no such curve, though single readings can be large or run the other way; tested in A549 cells; note: nearly all actives have a fitted effect of over 35% in size; inactives centre near -10
* marks the source's active call; other numbers are inactive results; i = inactive; ? = inconclusive; · = not tested or not shown; & = joins results of further samples; [ ] = remark or other dose. % is set by controls: 0 for no effect and ±100 for the full control effect; potency is the fitted concentration of half-maximal effect.

Every second line gives: Vaccinia Venus | VACV mCherry inh
- O=C(O)c1cccc2c1NC(C(=O)O)C1CC(Sc3ccccc3[N+](=O)[O-])C(Cl)C21 (centres undefined)
  -13% | i
- COc1ccc(-n2c(-c3ccc(C)cc3)cc3c2CC(C)(C)CC3=O)c(OC)c1
  -1% | 2%
- COc1cc(OC)cc(C(=O)NC(=S)NNC(=O)c2cnccn2)c1
  -19% | i
- COc1ccc(OC)c(S(=O)(=O)NCCOC23CC4CC(CC(C4)C2)C3)c1
  -13% | -20%
- CN(Cc1ccc(-n2cccn2)cc1)Cc1nc(-c2cnccn2)no1
  -10% | i
- C[N+](C)(CCOc1ccccc1)Cc1ccccc1
  -16% | i
- Cc1csc(=O)n1CC(=O)OCC(=O)NCc1ccccc1
  -8% | -8%
- COCCCn1c(SCC(=O)NC2CCCC2)nnc1-c1ccncc1
  2% | -2%
- Cc1c(NC(=O)C2CC(c3ccc(F)cc3)=NO2)c(=O)n(-c2ccccc2)n1C (centres undefined)
  -10% | -18%
- CCOCCCNC(=O)c1ccc(OC)cc1
  -10% | -19%
- Cc1ccc(Cn2c3ccccc3c3cnn(CC(=O)Nc4cc(Cl)ccc4C)c(=O)c32)cc1
  -6% | -11%
- CCCOC(=O)c1cccc(NC(=O)CSc2nnc3cc(C)c4ccccc4n23)c1
  -8% | -13%
- CC(=O)c1ccccc1NC(=O)Cn1c(=O)cnc2ccccc21
  -6% | i
- O=C(NCc1ccc(Cl)cc1)C(=O)Nc1cccc(Br)c1
  ? | -7%
- C#CCN(C[C@@H]1[C@@H](OC(=O)Nc2cccs2)[C@@H](OC(=O)Nc2cccs2)Cn2c(=O)n(CCCCCC)c(=O)n21)S(=O)(=O)c1ccc(C)cc1
  -29% | i
- CC(C)N(Cc1nnc(-c2ccc(Cl)cc2)o1)C(=O)C1=COCCO1
  -5% | -9%
- O=C(COC(=O)C1CCCN1C(=O)c1cccs1)Nc1ccc2c(c1)OCO2 (centres undefined)
  -2% | ·
- COc1cc(/C=C/C(=O)OCC(=O)Nc2c(C)n(C)n(-c3ccccc3)c2=O)ccc1O
  -2% | -1%
- C#CCOCCOCCOCCNc1nc(N2CCN(C(=O)CCCCCCCCCCNC(=O)Cn3cc(C[C@@H](C)O)nn3)CC2)nc(N2CCN(C(=O)CCCCCCCCCCNC(=O)[C@H](CO)n3cc(CCCSC)nn3)CC2)n1
  ? | i
- O=C(CSC1=NCCS1)Nc1ccccc1F
  -9% | ·
- CCOC(=O)[C@]12CCC=C1N(Cc1ccccc1)C(=O)[C@H](CC(=O)NCc1cccc(C(F)(F)F)c1)C2
  -20% | 6%
- CN(C)S(=O)(=O)c1ccc(N2CCCC2)c(C(=O)Nc2ccc(Br)cc2F)c1
  -24% | -16%
- COc1ccc(Cl)cc1-c1cc(C(=O)NC2CCCCC2)[nH]n1
  -15% | i
- Cc1cc(O)c(C=O)c2c1C(=O)Oc1c(C)c(O)c3c(c1O2)C(O)OC3=O (centres undefined)
  -9% | -17%
- CCCNC(=O)C(Cc1ccc(I)cc1)NC(=O)c1ccc(C#N)cc1 (centres undefined)
  -16% | i
- COc1cc(CNCc2cccnc2)ccc1OCC(=O)NC1CCCCC1
  -4% | -17%
- CCOC(=O)c1ccccc1NC(=O)N(Cc1ccc(C)cc1)Cc1cccn1-c1nnc(N2CCCC2=O)s1
  -17%[7.34 µM] | -16%[7.34 µM]
- Cc1ccc(C)c(OCC(=O)NCC(C)C)c1C
  -1% | -15%
- CCC(C)(C)NC(=O)C(c1ccc(F)cc1)N(Cc1ccco1)C(=O)c1cnccn1 (centres undefined)
  -8% | -11%
- O=C(NCCN1CCCCC1)Nc1ccc(F)cc1F
  2% | -8%
- CCOC(=O)c1cnc2c(Cl)cc(Cl)cc2c1Nc1cc(C(=O)O)ccc1C
  -6% | -2%
- CCCSc1nc2c(cnn2-c2ccccc2)c(=O)n1N
  -5%[7.34 µM] | i[7.34 µM]
- COc1ccc(C(=O)Oc2ccc(N(C)S(=O)(=O)c3ccccc3)cc2)cc1[N+](=O)[O-]
  -2% | -17%
- O=C(O)CCCC(=O)Nc1ccc(N=Nc2ccccc2)cc1
  -5% | i
- CC1CCC2C(=O)N(c3ccc(C(=O)NCc4ccccc4)cc3)C(=O)C2C1 (centres undefined)
  -15% | -10%
- CC/C(=N\NC(=S)NC(C)C)c1ccc(OC)c(OC)c1
  -9% | -10%
- O=C(Cc1ccc(F)cc1)N[C@@H]1c2ccccc2CC[C@@H]1O
  -4% | i
- O=C(Nc1cc(-c2nc3ncccc3o2)ccc1Cl)c1cccs1
  -8% | -10%
- CN1CCN(CCCNC(=O)c2cnn(-c3ccccc3)c2-n2cccc2)CC1
  -11% | -17%
- O=[N+]([O-])c1cc(S(=O)(=O)Oc2ccccc2)ccc1Cl
  ? | ?
- O=C(NC(=S)Nc1ccc(CN2CCOCC2)cc1)c1ccc([N+](=O)[O-])cc1Cl
  ? | ?
- Fc1ccc(C(c2nnnn2C2CCCC2)N2CCN(Cc3ccncc3)CC2)cc1 (centres undefined)
  -12% | ·
- O=C(COc1ccc(F)cc1)NCCc1nc2ccccc2[nH]1
  -5% | -3%
- Cc1nn(C)c(C)c1C(=O)NN
  0% | i
- O=C(N/N=C/C=C/c1ccccc1)c1ccccn1
  -13% | i
- CCOc1ccc(N=Cc2c(O)n(-c3cc(C)cc(C)c3)c(=O)[nH]c2=O)cc1
  15% | -21%
- Cc1ccc(S(=O)(=O)c2c(C)nn(-c3ccccc3)c2OC(=O)c2ccccc2F)cc1
  5% | -4%
- COc1cc(C(=O)N2CCC3(CC2)NCCc2[nH]cnc23)cc(OC)c1OC
  -8% | 0%
- C#CC[N+]1(CC#Cc2ccccc2)CCCCC1
  -9% | -17%
- CSc1n[nH]c2nc3c(c(=O)n12)C1(CCCC1)Cc1ccccc1-3
  2% | i
- Cc1c(C(=O)N/N=C/c2ccccc2)[nH]c2c([N+](=O)[O-])cccc12
  -19% | -5%
- O=C(O)c1ccc(OCCOc2ccccc2)cc1
  -11% | i
- COCCCNC(=O)C[C@@H]1C[C@@]2(C(=O)OC)CCCCC=C2N(CCc2ccc(OC)c(OC)c2)C1=O
  -10% | -8%
- CC(=O)c1cn(N2CCCCC2)c(=O)[nH]c1=O
  -14% | i
- COc1ccccc1N(CC(=O)Nc1ccc(C(F)(F)F)cc1)S(C)(=O)=O
  -6% | i
- NC(=O)c1[nH]cnc1N
  -10%&-7% | -14%
- Cc1cccc(C(C)C)c1NC(=O)COC(=O)c1cccc(S(=O)(=O)N2CCc3ccccc3C2)c1
  -18% | i
- Cc1ccc(NC(=O)COC(=O)c2cc(Cl)ccc2[N+](=O)[O-])c(C)c1
  -9% | -14%
- CCn1nc(C)c(NC(=O)Nc2cccc(Cl)c2Cl)c1C
  -18% | -9%
- O=C(c1cc2cc(Br)ccc2s1)N1CCOCC1
  -10% | i

More entries:
Every second line gives: Vaccinia Venus | VACV mCherry inh
- CCC(C)(NC(=O)c1ccc2c(c1)OCO2)C(=O)NC1CCCCC1 (centres undefined)
  1% | -6%
- CCOC(=O)c1c(C)[nH]c(C)c1S(=O)(=O)N1CCC(C(=O)N2CCN(c3ccccc3F)CC2)CC1
  -18% | -24%
- CCN(CC)S(=O)(=O)c1cc(C(=O)OCC(=O)Nc2cccc(Br)c2)ccc1F
  -4% | -16%
- O=C(CC1NCCNC1=O)Nc1ccc(Cl)c(Cl)c1 (centres undefined)
  -8% | i
- CCN1C(=O)CCCc2ccccc21
  -6% | i
- CC(C)(C)CC(=O)O/N=C(\N)c1ccncc1
  -7% | i
- Cn1cnc([N+](=O)[O-])c1NC(C)(C)C
  -25% | ·
- COC(=O)c1cc2c(cc1NC(=O)c1cnn(-c3ccc(C)cc3)c1-n1cccc1)OCO2
  -11% | -5%
- Cc1ncc(COC(=O)C(C)C)c2cc(C(=O)Nc3ccccc3C(F)(F)F)c(=O)oc12
  -4% | -14%
- N#Cc1ccccc1N1CCN(C(=O)c2ccc(NC(=O)c3ccc(Br)o3)cc2)CC1
  -10% | 1%
- COc1cccc(N/C=C/C(=O)c2ccc(Cl)cc2)c1
  -15% | ?
- COc1ccc(NCc2cccnc2)cc1
  -21% | ?
- COC(=O)[C@@]1(Cc2ccc(F)cc2)[C@H]2c3cc(C(=O)N(C)C)n(Cc4nc5ccccc5[nH]4)c3C[C@H]2CN1C(=O)c1ccccc1
  ? | i
- CCOC(=O)N1CCN(C(=O)c2cc3c(ccc4ccccc43)oc2=O)CC1
  -2% | -13%
- Cc1cc(C)cc(C(=O)N(Cc2ccco2)c2c(N)n(Cc3ccccc3)c(=O)[nH]c2=O)c1
  -15% | -26%

Some of the entries above, set out differently:
CCOC(=O)c1c(C)[nH]c(C)c1S(=O)(=O)N1CCC(C(=O)N2CCN(c3ccccc3F)CC2)CC1
  Vaccinia Venus: -18%; VACV mCherry inh: -24%

CCOC(=O)N1CCN(C(=O)c2cc3c(ccc4ccccc43)oc2=O)CC1
  Vaccinia Venus: -2%; VACV mCherry inh: -13%

New compounds follow.
| SMILES | Vaccinia Venus | VACV mCherry inh |
| --- | --- | --- |
| C[C@H]1CN([C@@H](C)CO)C(=O)c2cccc(NC(=O)C3CC3)c2O[C@H]1CN(C)C(=O)Nc1ccc2c(c1)OCO2 | -19% | i |
| CCCCCCOc1ccccc1C(N)=O | ? | ? |
| O=C(Nc1ccc(S(=O)(=O)NC2=NCCCCC2)cc1)c1cccc(OC(F)F)c1 | -25% | -11% |
| COc1ccc(-c2cc(C(=O)N3CCCCCC3)c3ccccc3n2)c(OC)c1 | -8% | i |
| CCCCC/C=C\CC1OC1CCCCCCCC(=O)O (centres undefined) | -2%[0.293 µM] | -16%[0.293 µM] |
| COCCn1c(=O)c2c(nc3n2CCCN3Cc2ccccc2)n(C)c1=O | -12% | -1% |
| CCCCN1C(=O)C(CC(=O)NCc2cccc3ccccc23)CC(C(=O)N2CCOCC2)=C1C (centres undefined) | -7% | -3% |
| O=C(/C=C/c1cc(Br)ccc1F)Nc1cccnc1 | -11% | -13% |
| CN(C(=O)COC(=O)c1n[nH]c2ccccc12)C1CCS(=O)(=O)C1 (centres undefined) | -2% | -15% |
| CSc1cccc(NC(=O)N2CCN(c3cc(-c4noc(C)n4)ccc3C)CC2)c1 | -24% | -24% |
| O=c1c(Cl)c(Cl)cnn1Cc1ccccc1Cl | ? | ? |
| CCOC(=O)c1[nH]c(C)c(CCC(=O)N2CCN(c3cc(C)ccc3C)CC2)c1C | -27% | -18% |
| CCn1c(=S)sc2c(=O)n(CC(=O)Nc3ccccc3)c(C)nc21 | -17%[7.34 µM] | i[7.34 µM] |
| Clc1cccc(Cc2c(-c3ccccc3)nc3ccc(Br)cn23)c1 | 6% | i |
| CC(SCc1ccccc1)C(=O)Nc1ccccc1-c1ccccc1 (centres undefined) | -16% | -11% |
| C[C@]12CCC3[C@@H](CC[C@H]4C[C@@H](O)CC[C@]34C)C1CCC2=O (some centres undefined) | -3% | 0% |
| COc1cccc(-c2cc(C(=O)Nc3ccn(Cc4ccc(C)cc4)n3)no2)c1 | -12%&4% | -16%&-10% |
| O=C(Nc1cccc2cccnc12)c1ccc2sc([C@@H]3O[C@H](CO)[C@H](O)[C@H](O)[C@H]3O)nc2c1 | 10% | i |
| O=C(NC(=S)Nc1ccc2c(c1)OCO2)c1ccccc1 | -15% | -16%[1.46 µM] |
| CCOC(=O)C1CCN(C(C(=O)NC2CCCCC2)c2ccc(OC)cc2)CC1 (centres undefined) | -7% | -12% |
| CSc1nnc2c(n1)OC(c1ccc(C(=O)O)cc1)N(C(C)=O)c1ccccc1-2 (centres undefined) | -3% | -4% |
| Cc1ccccc1-c1ccc(=O)n(CC(=O)Nc2ccc(-n3cnnn3)cc2)n1 | -11% | 6% |
| CCN1C(=O)Nc2cccc3cccc1c23 | -22% | -18% |
| COc1ccc2nc(SCC(=O)NCc3ccc(S(N)(=O)=O)cc3)[nH]c2c1 | 5% | 3% |
| Cc1cccc(NC2=NCC(=O)N2CCc2ccccc2)c1 | -3% | i |
| CSc1ccc(CCNC(=O)CCCn2nc(C)c3sc4ccccc4c3c2=O)cc1 | -10% | -17% |
| COc1ccc(CCNC(=O)CCn2c(=O)oc3ccccc32)cc1 | -8% | i |
| CC(=O)Nn1c(C)nnc1-n1nc(C)cc1C | -17% | -15%[1.46 µM] |
| Cc1nc([N+](=O)[O-])cn1CC(O)c1ccc(F)cc1 (centres undefined) | -7%[7.34 µM] | i[7.34 µM] |
| CC1CCC(NC(=O)CN2CCCN(Cc3ccc(F)cc3Cl)C2=O)CC1 (centres undefined) | ? | ? |
| O=C(Nc1ccc2c(c1)OCCO2)c1c[nH]c(=O)n(-c2ccc(F)c(Cl)c2)c1=O | -10% | -4% |
| CC1(C(=O)NS(=O)(=O)c2cccc(OC(F)F)c2)CCN1C(=O)c1ccccc1 (centres undefined) | 0% | i |
| CC(C)Oc1ccc(CCNC(=O)CC2C(=O)NCCN2C)cc1 (centres undefined) | -10% | -23% |
| COc1cc(OC)nc(Oc2ccccc2C=O)n1 | -16% | -11% |
| COc1ccccc1NS(=O)(=O)c1cc(NC(=O)CNC(=O)c2ccc(C)s2)ccc1Cl | -7% | i |
| O=C1NC(=O)N(c2ccccc2)C(=O)/C1=C\c1ccccc1[N+](=O)[O-] | -15% | i |

Full records, quoted from the list:
CC(C)Oc1ccc(CCNC(=O)CC2C(=O)NCCN2C)cc1 (centres undefined) is listed with Vaccinia Venus = -10%; VACV mCherry inh = -23%
CC1(C(=O)NS(=O)(=O)c2cccc(OC(F)F)c2)CCN1C(=O)c1ccccc1 (centres undefined) is listed with Vaccinia Venus = 0%; VACV mCherry inh = i
